High-throughput results (PubChem)
A1 inhib – blocks A1 activity | 21,000 compounds, 0.51% hits | caspase activation, % (test concentration not listed) | MEF A1-2A-BIM cells, caspase-Glo luminescence, 3 h; percent of clofoctol signal, DMSO as zero;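 active = most replicate scores above 10, or exactly half above 10 with mean activity above 10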;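 note: effector caspase 3 and 7 activity cleaving a DEVD luciferin substrate; 50 nL library stock added to about 30 µL; numbers are from one replicate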
BJeLR viab HTS – lowers viability of BJeLR cells; BJeLR fibroblasts viability, CellTiterGlo ATP luminescence, 48 h; HRASV12, hTERT and SV40 LT/ST transformed; viability loss activity score, % (test concentration not listed); 30,000 compounds, 0.64% hits; AID 2275; in the data active = viability loss activity score above about 50%; about a fifth of its hits are not listed in these tables;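 note: higher score means fewer live cells and less ATP luminescence; stock transfer was 50 or 100 nL into about 30 µL; 0% = vehicle wells and 100% = a reference killing control; one replicate is shown; the record names a cut of 85%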
* = called active by the depositor; . = no result given. A portion of the library; the hit share may differ from the screen's.

SMILES	A1 inhib	BJeLR viab HTS
COc1ccc(-c2coc3c(OC)c(OC)cc(OC)c3c2=O)cc1	-0.1	-0.6
C[C@H]1CN([C@@H](C)CO)C(=O)c2cc(NC(=O)Nc3ccccc3)ccc2O[C@H]1CN(C)C(=O)NC1CCCCC1	-0.3	0.7
Cc1ccc(S(=O)(=O)N(C)C[C@H]2Oc3ccc(NC(=O)CCN4CCOCC4)cc3C(=O)N([C@H](C)CO)C[C@H]2C)cc1	-0.8	4.9
Cc1cc(C)cc(Oc2coc3cc(OC(=O)C4CCCCC4)ccc3c2=O)c1	.	1.0
COc1ccc(CN(C)C[C@@H]2Oc3ccc(NS(=O)(=O)c4cn(C)cn4)cc3C(=O)N([C@H](C)CO)C[C@@H]2C)cc1	0.2	-4.5
C[C@H]1CN([C@@H](C)CO)C(=O)c2cc(NS(=O)(=O)c3ccc(F)cc3)ccc2O[C@@H]1CN(C)Cc1ccc(C(=O)Nc2ccccc2N)cc1	.	-2.5
CC(C)=CC(O)C/C(C)=C/COc1ccc2ccc(=O)oc2c1 (centres undefined)	0.0	6.8
COC(=O)c1cc(C)cc(OC)c1C1C(=O)C(=O)c2c(O)cccc2C1=O (centres undefined)	-0.4	5.1
C[C@@H]1CN([C@H](C)CO)C(=O)c2cccc(NC(=O)c3ccncc3)c2O[C@@H]1CN(C)S(=O)(=O)c1cccs1	.	2.0
CC(Cc1ccccc1)N/C=C1\CC(=O)NC1=O (centres undefined)	0.0	-2.8
COc1ccc(S(=O)(=O)N(C)C[C@H]2Oc3ccc(NC(=O)CCC(F)(F)F)cc3C(=O)N([C@H](C)CO)C[C@@H]2C)cc1	-0.6	-2.6
CC1OC(OC2C(O[C@H]3OC[C@](O)(CO)[C@H]3O)COC(O[C@@H]3[C@@H](O)[C@@H](O)[C@H](OC4C(OC(=O)[C@]56CCC(C)(C)CC5C5=CCC7[C@@]8(C)C[C@H](O)[C@H](OC9OC(CO)C(O)C(O)C9O)[C@@](C)(CO)C8[C@H](O)C[C@@]7(C)[C@]5(C)CC6)OCC(O)C4O)O[C@H]3C)C2O)C(O)C(O)C1O (some centres undefined)	0.5	2.0
CC1CCCCN1C(=O)CSc1nnc(-c2ccc(Cl)cc2)o1 (centres undefined)	.	6.1
O=C(c1ccccc1)N1N=C2CCCCC2C1(O)C(F)(F)F (centres undefined)	1.4	-2.2
C=C(C(=O)O[C@H]1C/C(C)=C\CC/C(CO)=C\[C@H]2OC(=O)C(=C)[C@H]12)C(O)CO (some centres undefined)	-1.0	-8.0
CCOC(=O)N1CCN(C(=O)CN(Cc2cccc(C)c2)S(=O)(=O)c2ccc(Cl)cc2)CC1	-0.9	2.9
Cc1ccc(S(=O)(=O)N(C)C[C@@H]2Oc3ccc(NS(=O)(=O)c4c(C)noc4C)cc3C(=O)N([C@@H](C)CO)C[C@@H]2C)cc1	0.3	-3.3
CC(C)C1NC(=O)C(CC2(O)c3ccccc3N3C(=O)C(Cc4ccccc4)NC32)NC1=O (centres undefined)	-0.5	-13
Oc1oc(-c2ccco2)nc1C=Nc1ccccc1	-2.9	-1.6
C[C@]12C=CC(=O)C=C1CCC1C2C(=O)C[C@@]2(C)C1CC[C@]2(O)C(=O)CO (some centres undefined)	1.2	-1.4
COc1ccc(OC(=O)c2cnc3n(c2=O)CCS3)cc1	-0.3	5.2
Cc1ncoc1C(=O)Nc1ccc(C(N)=O)cc1	-4.2	2.8
Fc1ccccc1-c1nc(-c2cccnc2)no1	-6.3	4.7
C[C@@H]1CN([C@H](C)CO)C(=O)c2cccc(NC(=O)c3cnccn3)c2O[C@H]1CN(C)Cc1ccc(Cl)c(Cl)c1	.	5.7
COc1ccccc1CNC(=O)Cn1cccc1	-0.1	1.0
CCc1nn(CC(=O)N2CCC(C(N)=O)CC2)c(=O)c2cc3sccc3n12	-0.5	1.1
CC(C)(C)NC(=O)CSc1ccc(Cl)cc1	0.5	0.9
CC(C(=O)OCC(=O)c1ccccc1)N1C(=O)C2C3C=CC(C3)C2C1=O (centres undefined)	-0.2	-5.3
Cc1ccc(Cn2c(=O)n(Cc3ccccc3)c(=O)c3c4c(sc32)CCC4)cc1	.	-0.8
Cc1noc(C)c1NC(=O)Nc1ccc2c(c1)C(=O)N([C@H](C)CO)C[C@H](C)[C@H](CN(C)Cc1ccccc1)O2	0.1	-2.4
CS(=O)(=NS(=O)(=O)c1cc(S(=O)(=O)c2ccccc2)cs1)c1ccc(Cl)cc1 (centres undefined)	-0.6	-0.4
O=C(Cn1cnc2c(nnn2Cc2ccc(Cl)cc2)c1=O)N1CCCc2ccccc21	1.6	0.3
COc1ccc(N2CCN(C(c3cccs3)C(C)NC(=O)c3ccccc3OC)CC2)cc1 (centres undefined)	.	3.2
Cc1cc(C(=O)Nc2cccc3c2O[C@H](CN(C)Cc2ccc4c(c2)OCO4)[C@@H](C)CN([C@@H](C)CO)C3=O)n(C)n1	.	-0.7
CC(C)NC(=O)Nc1ccc2c(c1)C(=O)N([C@H](C)CO)C[C@H](C)[C@@H](CN(C)Cc1ccc(C(F)(F)F)cc1)O2	0.0	5.1
CCOc1ccc(NC(=O)c2ccc3c(c2)N(Cc2ccc(C)cc2)CCS3)cc1	0.1	1.2
COc1cc(O)c2c(c1)O[C@H](c1ccc(O)c(O)c1)[C@@H](OC(C)=O)C2=O	-0.2	-8.2
CC1=CCC2C(=O)N(c3cccc(C(F)(F)F)c3)C(=O)C2C1 (centres undefined)	.	1.7
C[C@H]1CN([C@@H](C)CO)C(=O)c2cc(NC(=O)Nc3ccc4c(c3)OCO4)ccc2O[C@@H]1CN(C)S(=O)(=O)c1cn(C)cn1	0.2	0.9
Cc1noc(C)c1S(=O)(=O)Nc1cccc2c1O[C@@H](CN(C)Cc1ccccc1)[C@@H](C)CN([C@H](C)CO)C2=O	.	-2.0
OC(COc1ccc(Nc2ccccc2)cc1)COc1ccc(Nc2ccccc2)cc1	-0.5	-3.0
Cc1noc(C)c1NC(=O)Nc1cccc2c1O[C@@H](CN(C)S(=O)(=O)c1cn(C)cn1)[C@H](C)CN([C@@H](C)CO)C2=O	.	-1.6
O=C(NCCN1CCC(Cc2ccccc2)CC1)c1ccc(-c2ccccc2)s1	-0.7	0.0
C[C@@H]1CN([C@@H](C)CO)C(=O)c2cccc(NC(=O)C3CCCCC3)c2O[C@@H]1CN(C)S(=O)(=O)c1cn(C)cn1	.	-3.0
CCN(C(C)=O)c1ccccc1C	1.4	3.8
C[C@@H]1CN([C@@H](C)CO)C(=O)c2cc(NC(=O)C3CC3)ccc2O[C@@H]1CN(C)Cc1ccc(C(=O)Nc2ccccc2N)cc1	.	8.9
COC(=O)c1c(C)[nH]c(C(=O)CSc2nnc3cc(C)c4ccccc4n23)c1C	0.4	6.0
C[C@@H]1CN([C@H](C)CO)C(=O)c2cc(NC(=O)CCCN(C)C)ccc2O[C@H]1CN(C)C(=O)NC1CCCCC1	0.3	-3.5
C[C@@H]1CN([C@H](C)CO)C(=O)c2cc(NS(=O)(=O)c3ccc(F)cc3)ccc2O[C@H]1CN(C)Cc1ccc(-c2ccccc2)cc1	-0.6	2.7
C=C1CCC[C@]2(C)CC[C@@](O)(C(=C)C(=O)O)C[C@@H]12	0.2	-8.1
C[C@H](CO)N1C[C@H](C)[C@H](CN(C)C(=O)Nc2ccc(C(F)(F)F)cc2)Oc2ccc(NS(=O)(=O)c3cccs3)cc2C1=O	12*	-2.1
C[C@@H]1CN([C@@H](C)CO)C(=O)c2cc(NC(=O)CCCCCC(=O)Nc3ccccc3N)ccc2O[C@@H]1CN(C)S(=O)(=O)c1cn(C)cn1	.	2.2
Cc1cc(C(=O)Nc2cccc3c2O[C@H](CN(C)Cc2ccncc2)[C@H](C)CN([C@H](C)CO)C3=O)n(C)n1	.	1.8
CC(=O)Oc1ccccc1C(=O)Oc1ccccc1C(=O)O	0.9	-0.5
Cc1[nH]c(=O)[nH]c(=O)c1S(=O)(=O)N1c2ccccc2CC1C (centres undefined)	0.0	4.9
CCN1C(=O)/C(=C\c2ccc(N(C)C)cc2Cl)OC1=S	0.0	-0.1
C[C@H](CO)N1C[C@H](C)[C@H](CN(C)Cc2ccc(-c3ccccc3)cc2)Oc2c(NC(=O)Nc3ccc(C(F)(F)F)cc3)cccc2C1=O	.	-0.6
CC(C)NC(=O)Nc1cccc2c1O[C@@H](CN(C)Cc1ccc(C(F)(F)F)cc1)[C@@H](C)CN([C@H](C)CO)C2=O	.	-1.9
C[C@@H]1CN([C@@H](C)CO)C(=O)c2cc(NC(=O)Nc3ccccc3)ccc2O[C@H]1CN(C)CC1CCCCC1	-0.8	7.2
CCNC(=O)c1ccc(Cl)s1	-0.5	5.2
Continuation:
SMILES	A1 inhib	BJeLR viab HTS
C[C@H]1CN([C@@H](C)CO)C(=O)c2cccc(NC(=O)C3CCOCC3)c2O[C@H]1CN(C)Cc1ccc(Cl)c(Cl)c1	.	-3.5
C[C@H](CO)N1C[C@H](C)[C@@H](CN(C)C)Oc2ccc(NC(=O)Cc3cn(C)c4ccccc34)cc2C1=O	0.2	0.6
COC(=O)c1cc(=O)n(-c2ccccc2)c(=Nc2ccccc2)s1	.	-11
C[C@@H]1CN([C@H](C)CO)C(=O)c2cc(NC(=O)CCC(F)(F)F)ccc2O[C@H]1CN(C)S(=O)(=O)c1ccccc1	0.3	-3.4
C[C@@H]1CN([C@@H](C)CO)C(=O)c2cccc(NC(=O)Nc3ccc(C(F)(F)F)cc3)c2O[C@H]1CN(C)S(=O)(=O)c1ccc(F)cc1	.	-2.4
C[C@H]1CN([C@@H](C)CO)C(=O)c2cccc(NC(=O)c3cnccn3)c2O[C@H]1CN(C)CC1CC1	.	-1.8
CN(C)CCNc1cnn(-c2ccccc2)c(=O)c1Cl	0.6	-1.3
COc1ccc(NC(=O)N(C)C[C@@H]2Oc3c(NS(=O)(=O)c4ccc(Cl)cc4)cccc3C(=O)N([C@@H](C)CO)C[C@@H]2C)cc1	.	0.5
Cc1noc(C)c1S(=O)(=O)Nc1ccc2c(c1)C(=O)N([C@H](C)CO)C[C@H](C)[C@H](CN(C)Cc1ccncc1)O2	0.8	2.1
C[C@@H]1CN([C@@H](C)CO)C(=O)c2cc(NC(=O)Cc3ccccc3)ccc2O[C@H]1CN(C)Cc1ccc(-c2ccccc2)cc1	0.8	-3.7
C[C@@H]1CN([C@@H](C)CO)C(=O)c2cccc(NC(=O)Nc3ccc(F)cc3)c2O[C@@H]1CN(C)C(=O)Nc1cccc2ccccc12	.	0.7
CCCCCCC[C@@H](O)CC(=O)CCc1ccc(O)c(OC)c1	0.7	-7.9
COC(=O)c1ccc(C(=O)Nc2ccc3nc(C4CCCCC4)[nH]c3c2)cc1	1.7	0.1
CC(C)NC(=O)N(C)C[C@H]1Oc2c(NC(=O)c3nc4ccccc4s3)cccc2C(=O)N([C@@H](C)CO)C[C@H]1C	.	-3.1
C[C@@H]1CN([C@H](C)CO)C(=O)c2cc(NC(=O)Nc3ccc(C(F)(F)F)cc3)ccc2O[C@@H]1CN(C)C(=O)Nc1ccc(F)cc1	0.1	-1.7
C[C@@H]1CN([C@H](C)CO)C(=O)c2cccc(NS(=O)(=O)c3ccc(F)cc3)c2O[C@H]1CN(C)C(=O)Nc1cccc2ccccc12	.	3.2
COc1ccc(S(=O)(=O)Nc2cccc3c2O[C@@H](CN(C)C(=O)NC2CCCCC2)[C@@H](C)CN([C@H](C)CO)C3=O)cc1	.	0.8
Cc1c(C(=O)N2CCCC2)oc2ccc3c(c12)C(=O)CC(C)(C)O3	-0.3	-2.2
CC1Cc2ccccc2N1C(=O)CCN1C(=O)C2C3C=CC(C3)C2C1=O (centres undefined)	.	0.5
CC(C)NC(=O)N(C)C[C@@H]1Oc2c(NC(=O)Nc3ccc(F)cc3)cccc2C(=O)N([C@@H](C)CO)C[C@@H]1C	.	-2.9
COc1ccc(S(=O)(=O)N(C)C[C@@H]2Oc3ccc(NS(C)(=O)=O)cc3C(=O)N([C@@H](C)CO)C[C@H]2C)cc1	-0.1	0.1
Cc1ccc(-c2nc(CSCC(=O)Nc3cc(C)on3)c(C)o2)cc1	-1.0	-3.2
C[C@H]1CN([C@@H](C)CO)C(=O)c2cccc(NC(=O)Nc3ccc(C(F)(F)F)cc3)c2O[C@@H]1CN(C)C(=O)Nc1ccc(F)cc1	.	0.7

Sorted by molecular weight (descending): part of the list above
SMILES	A1 inhib	BJeLR viab HTS
C[C@@H]1CN([C@H](C)CO)C(=O)c2cccc(NS(=O)(=O)c3ccc(F)cc3)c2O[C@H]1CN(C)C(=O)Nc1cccc2ccccc12	.	3.2
C[C@@H]1CN([C@H](C)CO)C(=O)c2cc(NC(=O)Nc3ccc(C(F)(F)F)cc3)ccc2O[C@@H]1CN(C)C(=O)Nc1ccc(F)cc1	0.1	-1.7
COc1ccc(NC(=O)N(C)C[C@@H]2Oc3c(NS(=O)(=O)c4ccc(Cl)cc4)cccc3C(=O)N([C@@H](C)CO)C[C@@H]2C)cc1	.	0.5
CC(C)NC(=O)N(C)C[C@H]1Oc2c(NC(=O)c3nc4ccccc4s3)cccc2C(=O)N([C@@H](C)CO)C[C@H]1C	.	-3.1

Whole records as entered above. Screens in order: A1 inhib, BJeLR viab HTS
CN(C)CCNc1cnn(-c2ccccc2)c(=O)c1Cl across the screens: 0.6, -1.3
Cc1noc(C)c1S(=O)(=O)Nc1ccc2c(c1)C(=O)N([C@H](C)CO)C[C@H](C)[C@H](CN(C)Cc1ccncc1)O2 across the screens: 0.8, 2.1
C[C@@H]1CN([C@H](C)CO)C(=O)c2cc(NC(=O)Nc3ccc(C(F)(F)F)cc3)ccc2O[C@@H]1CN(C)C(=O)Nc1ccc(F)cc1 across the screens: 0.1, -1.7
C[C@@H]1CN([C@@H](C)CO)C(=O)c2cccc(NC(=O)Nc3ccc(F)cc3)c2O[C@@H]1CN(C)C(=O)Nc1cccc2ccccc12 across the screens: ., 0.7
C[C@@H]1CN([C@@H](C)CO)C(=O)c2cccc(NC(=O)Nc3ccc(C(F)(F)F)cc3)c2O[C@H]1CN(C)S(=O)(=O)c1ccc(F)cc1 across the screens: ., -2.4
